Screens as filed in PubChem.
VACV Venus inh – vaccinia inhibition (Venus reporter) | hit rate 0.46% among 330,000 | AID 720580 | Potency, µM (series often up to 36.5 µM), inactives show at the top dose activity change, negative = inhibition, actives largely listed as inhibitors | Vaccinia virus Venus reporter expression, fluorescence; active means well fitted inhibition curve with a large enough effect; inconclusive means small, poorly fitted or top-dose-only effect; inactive means no such curve, though single readings can be large or run the other way; tested in A549 cells; also: nearly all actives have a fitted effect of over 30% in size; inactives centre near -10
VACV mCherry inh – inhibitors of vaccinia virus infection (mCherry reporter signal); Vaccinia virus mCherry reporter infection, fluorescence; about a quarter of the inactives have no number; Potency, µM (top dose mostly 36.5 µM), inactives show at the top dose activity change, negative = inhibition, usual class: inhibitors; hit rate 0.63% among 310,000; active = well fitted inhibition curve with a large enough effect; inconclusive = small, poorly fitted or top-dose-only effect; inactive = no such curve, though single readings can be large or run the other way; tested in A549 cells; also: nearly all actives have a fitted effect of over 35% in size; inactives centre near -10
An asterisk follows results filed as active; i = inactive; ? = inconclusive; / = not tested or not shown; & = joins results of further samples; [ ] = dose if it differs, or a comment. % is scaled to controls: 0 for no effect and ±100 for the full control effect; potency is read from the fitted curve at half-maximal effect.

mol	VACV Venus inh	VACV mCherry inh
CC1(C)CC[C@]2(C(=O)O[C@@H]3O[C@H](CO)[C@@H](O)[C@H](O)[C@H]3O)CC[C@]3(C)C(=CCC4[C@@]5(C)CC[C@H](O[C@@H]6O[C@H](C(=O)O)[C@@H](O[C@H]7OC[C@@H](O)[C@@H](O)[C@@H]7O)[C@H](O)[C@H]6O)C(C)(C)C5CC[C@]43C)[C@@H]2C1 (stereo partly drawn)	-3%	i
C/C(=N\Nc1nc2ccccc2[nH]1)c1ccc2c(c1)OCO2	?	?
S=C(Nc1cccnc1)N1CCCCC1	-14%	i
CC1CCCCC1NC(=S)NC(=O)c1ccccc1Br (stereo not drawn)	-11%	i
Cc1ccccc1NC(=O)C1CCN(S(=O)(=O)c2ccc3c(c2)NC(=O)C(C)S3)CC1 (stereo not drawn)	-2%	-7%
CC(C)OP(=O)(c1ccccc1)c1ccccc1	-15%	i
COc1cc(C)c2ccccc2n1	-4%	i
CCOc1ccc(C(=O)c2ccc(O)c(O)c2O)cc1	0%	-5%
Cc1ccccc1C(=O)NCCCNC(=O)c1ccccn1	-1%	-14%
Brc1cccc(-c2nnn3c2nc(NC2CCCCC2)c2ccccc23)c1	8%	-3%
COC(=O)C(=O)C1CCc2c(Cl)cc(OC)c(OC)c2C1=O (stereo not drawn)	1%	i
CCOc1ccc(C(=O)Nc2ccc(S(=O)(=O)N3C[C@@H]4C[C@@H](C3)c3cccc(=O)n3C4)cc2)cc1	-26%	?
COc1ccc(CCC(=O)NC2CC(=O)N(c3ccc(C)c(C)c3)C2)cc1 (stereo not drawn)	-9%[7.34 µM]	-4%[7.34 µM]
CC(C)CCSc1nc2c(c(=O)[nH]c(=O)n2C)n1CCc1ccccc1	8%	/
CC(C)OCCCNC(=O)CN1C(=O)COc2ccc(S(=O)(=O)N3CCCCCC3)cc21	0%&-10%	-8%&-7%
CCOc1ccccc1N1CCN(CC(=O)Nc2ccccc2C(=O)NC2CC2)CC1	-11%	-10%
C=CCOc1ccccc1CN1CCC(n2nccc2NC(=O)C2CC2)CC1	-10%	-1%
Oc1c(Cl)cc(Cl)cc1CNc1ccc(Br)cn1	-11%	-14%
COc1ccc(OC)c(NC(=O)c2cnn(-c3ccc(C)cc3)c2C2CCNCC2)c1	1%	-18%
C[C@]12C=CC(=O)C=C1CC[C@@H]1C2=CC[C@]2(C)[C@@H](C(=O)CN3CCN(c4cc(N5CCCC5)nc(N5CCCC5)n4)CC3)CC[C@@H]12	?	1µM*
CCCCCSc1nnc2c(n1)[nH]c1c(C)cccc12	-12%	-23%
CCOC(=O)c1sc(N(Cc2ccccc2)C(=O)COC(=O)c2ccccc2O)nc1C	-12%	i
CCOc1ccc2nc(N/C(N)=N/C(=S)Nc3ccc(C)c(C)c3)nc(C)c2c1	-9%	-23%
COc1ccc(CC2C(=O)NC(C)C(=O)N(C)C3Cc4ccc(cc4)Oc4cc(ccc4O)CC(C(=O)NC(C)C(=O)NC(C)C(=O)N2C)N(C)C3=O)cc1 (stereo not drawn)	?	?
C/C(=N\N1CCN(C2c3ccccc3-c3ccccc32)CC1)c1ccco1	0%	i
CC(=O)c1cn(CCCOc2ccccc2)c2ccccc12	-26%	i
Cc1ccc(CNC(=O)c2cnn3c(C)c(Cc4c(F)cccc4Cl)c(C)nc23)cc1	-14%	-15%
COC(=O)c1cccc(Cn2nc(C)c([N+](=O)[O-])c2C)c1	0%	-8%
Cc1cc2occ(CC(=O)N(CC(C)C)c3c(N)n(Cc4ccccc4)c(=O)[nH]c3=O)c2cc1C	-7%	-13%
CCOC(=O)CSc1nc2sc3c(c2c(=O)n1-c1ccc(OC)cc1)CC(C(C)C)OC3 (stereo not drawn)	4%	-8%
CCc1nnc(NS(=O)(=O)c2ccc(NCc3cc(Cl)cc(Cl)c3O)cc2)s1	-4%	i
COc1cc(NS(=O)(=O)c2ccc(NC(=O)C34CC5CC(CC(C5)C3)C4)cc2)ncn1	-8%	/
Cc1cc(C)cc(C(=O)Nc2nnc3n2CCS3)c1	-4%	-3%
Cc1cccc(N(C)S(=O)(=O)c2ccc3[nH]c(=O)c(=O)[nH]c3c2)c1	-8%	i
COc1cccc(Oc2coc3cc(OC(=O)N4CCOCC4)ccc3c2=O)c1	-11%	-2%
O=C(CSc1nc(-c2ccccc2)c(-c2ccccc2)o1)NCCCO	-21%	-1%
OCCN1CCN(C2Cc3cc(Cl)ccc3Sc3ccc(Cl)cc32)CC1 (stereo not drawn) (tested in a mixture with another compound)	?	?
O=C(O)c1ccccc1C(=O)Nc1ccc(Nc2ccccc2)cc1	-20%	-15%
Nc1cc(Cl)cc(C(=O)O)c1Cl	-11%	i
O=C(Nc1ccc(F)c(Cl)c1)C1CCN(S(=O)(=O)c2ccc3[nH]c(=O)ccc3c2)CC1	3%	0%

Entries from the list above that contain bromine, in the order listed:
mol	VACV Venus inh	VACV mCherry inh
CC1CCCCC1NC(=S)NC(=O)c1ccccc1Br (stereo not drawn)	-11%	i
Brc1cccc(-c2nnn3c2nc(NC2CCCCC2)c2ccccc23)c1	8%	-3%
Oc1c(Cl)cc(Cl)cc1CNc1ccc(Br)cn1	-11%	-14%

The results go on:
mol	VACV Venus inh	VACV mCherry inh
COc1ccccc1C(=O)Nc1cccc(C(=O)OCc2cc(=O)n3nc(C4CC4)sc3n2)c1	-14%	?
Cc1ccc(COC(=O)c2ccc(-c3nnn(Cc4ccc(C)cc4)n3)cc2)cc1	-4%	-4%
COC(=O)C[C@H](NC(=O)Cn1cc(C)c(=O)[nH]c1=O)C(=O)OC	0%	i
NC(=O)N\N=C/C=C/C=C/c1ccc(F)cc1	-5%	i
Cc1ccccc1-c1ccc(=O)n(CC(=O)Nc2ccc(S(=O)(=O)N(C)C)cc2)n1	-3%	-14%
COc1ccc(N2CC(NC(=O)/C=C\c3ccc4c(c3)OCO4)CC2=O)cc1 (stereo not drawn)	-9%	-10%
Cc1ccc(-n2nc3ccc(NC(=O)c4cc5ccccc5o4)cc3n2)cc1	0%	-10%
COc1ccc(S(=O)(=O)NNC(=O)C23CC4CC(CC(C4)C2)C3)cc1	-13%	-5%
CCOC(=O)C1CCCN(c2c(Nc3cc(C)cc(C)c3)c(=O)c2=O)C1 (stereo not drawn)	-3%	4%
COc1cccc(NC(=O)c2ccc(-c3ccc([N+](=O)[O-])cc3)o2)c1	-18%	-5%
CC(NS(=O)(=O)c1ccccc1)C(=O)NC1CCCC1 (stereo not drawn)	4%	i
Cc1nn(CC(=O)N2CCC(C)CC2)c(=O)c2cc3sccc3n12	-8%	-11%
COc1ccc(/C=N/NC(=O)c2ccc(CSc3nc(C)cc(C)n3)cc2)cc1O	-26%	-4%
C=CCc1cccc(C=Nc2ccc(Br)cc2)c1O	-21%	-1%
COc1ccccc1CNC(=O)CCCNC(=O)Cn1cnc2sc(C)c(C)c2c1=O	-11%	i
C=CCOc1ccc(CNC(C)(C)CO)cc1OCC	-23%	/
CC(C)N1C(=O)/C(=C/c2nc3ccccc3c(=O)n2-c2ccccc2)c2ccccc21	-13%	-2%
Cc1ccc(CNC(=O)Cn2nnc3ccccc3c2=O)cc1	2%	-13%
Cc1ccc2c(C(=O)CNc3nccs3)c(C)[nH]c2c1	-18%	-28%
Cc1ccc(-c2nn(-c3ccccc3)cc2C(=O)OCC(=O)Nc2ncc(Cl)cc2Cl)cc1	-10%	-14%
COc1ccc(C(=O)NCC(C)(C)CNC(=O)c2ccc(OC)c(OC)c2)cc1OC	9%	i
COc1ccccc1Cn1c(=O)oc2ccccc21	-11%	i
O=C(Cc1cccs1)Nc1nnc(SCc2ccc(F)cc2)s1	-17%	-10%
CC(C)(C)C1CCc2onc(C(=O)Nc3sc4c(c3C(N)=O)CCCC4)c2C1 (stereo not drawn)	-13%	i
CCOC(=O)C1=C(C)NC(SCc2cc(=O)[nH][nH]2)=C(C#N)C1c1cccs1 (stereo not drawn)	-13%	i
C/C(=N\NC(=O)COc1ccc(C)cc1C(C)C)c1cc2ccccc2o1	-11%	-13%
Cc1[nH]c2ccccc2c1C(=O)CSC(=S)N(C)C1CCCCC1	-4%	i
CC12CCC(C(=O)NCc3ccc4c(c3)OCO4)(CC1=O)C2(C)C (stereo not drawn)	-9%	-10%
OCCOCCNc1ncnc2c1cnn2-c1ccc(Cl)cc1	-10%	/
CC(=O)Nc1ccc(S(=O)(=O)N2CCN(c3ccc([N+](=O)[O-])c(NCCN4CCOCC4)c3)CC2)cc1	-13%	i
O=C(CCS(=O)(=O)c1ccc(Br)cc1)N1CCN(c2ccccc2F)CC1	-27%	/
COc1cccc2c3cccc(OC)c3c3[nH]cnc3c12	?	-23%
CCOC(=O)C1=C(C)N(Cc2ccccc2)C(=O)NC1c1ccc(OC)cc1 (stereo not drawn)	2%	-5%
COc1ccc(Cc2nnc(NC(=O)c3cccc(C)c3)s2)cc1	-2%	-5%
Cc1cccc(C2c3[nH]c4ccccc4c3CCN2C(=O)c2cc3c([nH]c2=O)CCCC3)n1 (stereo not drawn)	-30%	-15%
COc1ccc(CN(C)C(=O)Cn2cnc3c(OCc4ccccc4)ncnc32)cc1OC	-26%	-2%
COc1ccc(-c2nc(C)sc2CC(=O)O)cc1	-18%	-21%
Cc1cc(NC(=O)C2CC=CCC2C(=O)O)no1 (stereo not drawn)	-10%	-11%
COc1ccccc1OCC(=O)NNC(=O)c1cccs1	-9%	-25%
Cc1ccc(CN(C)C(=O)c2cccc(S(=O)(=O)N3CCCC3)c2)o1	13%	i
Cc1ccc(NS(=O)(=O)c2ccc(Cl)c(NC(=S)NC(=O)C3CCCCC3)c2)cc1Cl	?	?
CCOC(=O)[C@H]1[C@H]2COc3ccc(C)cc3[C@@H]2N2C(=O)CN(Cc3ccc(C)cc3)C(=O)[C@@]12C	-24%	-10%
CN(CC(=O)Nc1c(Cl)cccc1Cl)C(=O)c1n[nH]c2ccccc12	-12%	-12%
O=C(NC(=S)Nc1ccc(-c2ccc(CO)o2)cc1)c1cccs1	-11%	i
N#Cc1nccc2ccc(OCc3ccc(Br)cc3)cc12	?	-24%
O=S(=O)(Nc1cc(Sc2ncn[nH]2)c(O)c2ccccc12)c1ccccc1	2.5µM*	6.3µM*
CCOc1ccccc1NC(=O)C1CCCN1C(=O)OCc1ccccc1 (stereo not drawn)	-7%	/
O=C(Cc1ccccc1)N1CCN(C/C=C/c2ccccc2)CC1	-9%	/
COc1cccc(C(=O)Nc2nc(-c3nnn(-c4cccc(Cl)c4C)c3C)ns2)c1	-18%	-21%
CCN(CC(=O)Nc1ccccc1OC)C(=O)C1CCC1	-8%	-6%
Cn1cccc1CNC(=O)Nc1ccccc1	-8%	-16%
CC(=O)NC1(c2cccc(F)c2)CCN(CC(=O)NC2CCCCC2)CC1	-19%	-24%
CC(Sc1nnnn1C)C(=O)Nc1ccccc1 (stereo not drawn)	1%	-9%
COc1ccc(C(=O)c2c3ccc(C(F)(F)F)cc3[n+]([O-])n2CCCN)cc1	-18%	?
Cn1c(-n2c(CCCN3C(=O)c4ccccc4C3=O)nc3ccccc3c2=O)nc2ccccc21	-13%	/
O=C(COC(=O)Cc1ccc(S(=O)(=O)N2CCOCC2)s1)Nc1ccccc1	-1%	-13%

Carrying on:
mol	VACV Venus inh	VACV mCherry inh
COc1ccccc1N1C(=O)C2CC(C)=C(C)CC2C1=O (stereo not drawn)	-5%	-2%
COc1cc(OC)cc(C(=O)NC(=S)N(Cc2ccccc2)C(C)C)c1	-18%	-27%
COc1cccc(C(=O)NC2CCCc3ccccc32)c1OC (stereo not drawn)	-8%	-6%
O=C(O)c1ccc(Br)cn1	-8%	-1%
C=C(C)[C@H]1C2C(=O)O[C@H]1[C@H]1OC(=O)[C@@]34O[C@@H]3C[C@]2(O)[C@@]14C	-8%	-13%
COc1ccc(S(=O)(=O)Cc2ccc(C(=O)N3CCOCC3)o2)cc1	-2%	5%
COc1cc(C)c(C(C)C)cc1S(=O)(=O)N1CCOCC1	-13%	i
COCCCNC(=O)CCCn1c(=O)c2ccccc2n(CC(=O)Nc2c(C)cccc2C)c1=O	6%	/
Cc1ccccc1CNC(=O)c1[nH]c(C(F)(F)F)nc1-c1ccccc1	-5%	i
COc1ccc(CN2CCCCCC2)cc1OC	-1%	i
CCOC(=O)C(Cc1ccc(O)cc1)NC(=O)CNC(=O)C1CCCN1C(=O)OC(C)(C)C (stereo not drawn)	-9%	-16%
COCC(C)OC(=O)c1c(N)n(Cc2ccco2)c2nc3ccccc3nc12 (stereo not drawn)	8%	/
COc1cc(/C=C2\SC(=O)NC2=O)ccc1Oc1ccc([N+](=O)[O-])cn1	3%[7.34 µM]	-4%[7.34 µM]
Cc1sc2nc(CN3CCCC3)nc(Cl)c2c1C	-1%	-10%
CNc1cc(-c2cccc(N(C)C)c2)ncn1	-14%	19%
CCN1C(=O)c2ccccc2S(=O)c2ccc(C(=O)N3CCCC3)cc21 (stereo not drawn)	4%	5%
CC(C)Sc1nc2c(c(=O)n1C)SC(C)C2 (stereo not drawn)	-2%	20%
